Screening data (PubChem)
Tg IFNy HTS: T. gondii growth inhibition under IFN-gamma; hit rate 3.8% among 69,000; Toxoplasma gondii growth in IFN-gamma-treated host cells; active compounds read low; reference of the scale not given here; activity change, negative = inhibition, %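 (about 20 µM by stock and volumes)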;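 active = below -70%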;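 also: host cells are HeLa cells infected with Toxoplasma gondii; parasite growth read as luciferase light; one replicate is shown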
* hit, by the source's call; i = inactive.

SMILES	Tg IFNy HTS
CCc1noc(CN(CC)C(=O)c2sc(C(C)C)nc2C)n1	-34
CC(=O)Oc1ccc(CN2CCC(c3nc(C)c(C)c(N4CCOCC4)n3)CC2)cc1	2
Cc1ccccc1NC(=O)Cn1c(=O)cc(C(=O)N2CCc3ccccc3C2)c2ccccc21	5
CCOc1ccc(-c2nc(CN(C)S(=O)(=O)CC)c(C)o2)cc1	180
COc1ccc(-c2oc3cc(OC)c(OC)c(OC)c3c(=O)c2OC)cc1OC	-19
CC(C)N(C)Cc1ncn2c1CN(C(=O)Cc1cccs1)CCC2	-2
Cc1csc(CN2CC[C@@H](c3ccc4c(c3)OCO4)[C@H](O)C2)n1	9
Cc1nnsc1CN(C)C(=O)c1n[nH]c2ccccc12	-7
Nc1cc2ccccc2nc1C1CCCCC1	118
Cc1cccc2c(CC(C)NC(=O)CN3C(=O)NC4C3N(C)C(=O)N4C)c[nH]c12 (stereo unspecified)	20
CCn1ncnc1CN(Cc1ccsc1)CC1CCCO1 (stereo unspecified)	8
CN1CCN(C(=O)C[C@H]2CC[C@H]3[C@@H](COC[C@@H](O)CN3C(=O)c3ccccc3F)O2)CC1	11
C[C@@H]1CN(S(=O)(=O)c2cccc(F)c2)CC[C@@]12CCC(C(=O)NCC1CC1)O2 (stereo partly specified)	4
Cc1ccccc1NC(=O)CC(=O)NC(CC(C)C)c1ncnn1C (stereo unspecified)	1
Clc1ccc2noc(-c3ccccc3)c2c1	6
COc1ccc(S(=O)(=O)N2CCCC3(CCc4ccccc4O3)CC2)cc1NC(C)=O (stereo unspecified)	4
Cc1ccc(=O)n(CC(=O)N2CCCCC2c2nc(-c3ccsc3)cc(=O)[nH]2)n1 (stereo unspecified)	6
COc1c(Br)c(Br)c(Br)c2c1OCCO2	-19
CCOc1cc(-n2cnnn2)c(OCC)cc1NC(=O)c1cc2ccccc2oc1=O	20
CC1CCCCN1C(=O)c1ccn(-c2ccc3ccccn23)n1 (stereo unspecified)	-20
C=Cn1cc(CN2CCCC(CNC(=O)c3ccncc3C)C2)cn1 (stereo unspecified)	1
Cc1cc(CNC(=O)c2cnc(N3CCOCC3)nc2)c2[nH]c(C)c(C)c2c1	16
CS(=O)(=O)N1CCCCC1c1ccnc(Nc2ccccn2)n1 (stereo unspecified)	-11
Cc1ccc2[nH]c(CN(Cc3nccn3C)C3CC3)c(C)c2c1	18
CCC(CC)n1ncc(C)c1NC(=O)c1cccc2nccnc12	54

Following part.
SMILES	Tg IFNy HTS
CC(C)CC(=O)NC(NC(=O)CC(C)C)c1cccc([N+](=O)[O-])c1	-7
CC(=O)c1sc(C2CCN(C(=O)CC3SC(=O)N(C)C3=O)CC2)nc1C (stereo unspecified)	-2
OCC1(O)CCN(c2nc3ccccc3s2)CC1	-3
CC(C)NC(=O)NCC[C@@H]1CC[C@H](NS(=O)(=O)c2ccc(Oc3ccccc3)cc2)[C@@H](CO)O1	-49
CCCc1nc(NCc2cnc(C)cn2)c2cnn(C)c2n1	11
CC(=O)Nc1ccc(C(=O)N(Cc2ccc(C)cc2)C2(C(=O)NCc3ccccc3)CCN(C(C)=O)CC2)cc1	-57
C#CCn1c(-c2ccco2)nc2ccccc21	98
O=C(Cn1ncc2c(N3CCCCC3)ncnc21)NCc1ccccc1	-92*
COc1ccc2c3c([nH]c2c1)[C@@H](CO)N(C(=O)c1cccnc1)CC31CN(Cc2ccccc2)C1	-17
CC(C)(O)c1cc(=O)sc2nc3ccccc3n12	211
Cc1nn(C)cc1C(=O)N1CCCC(N(C)S(=O)(=O)c2cccc(F)c2)CC1 (stereo unspecified)	19
CO[C@H]1CN(C)C(=O)c2ccc(NC(=O)Nc3ccccc3F)cc2OC[C@@H](C)N(CC2CC2)C[C@H]1C	-46
CC(C)(C)c1cc(-c2csc(-c3ccc(Cl)cc3)n2)cc(C(C)(C)C)c1O	58
COc1cccc(-c2nn(C)c3c2[C@H]2CN(Cc4ccncc4)C[C@@H]2C3)c1	-8
Cc1nnnn1-c1cccc(C(=O)NCCc2cn(C)c3ccc(F)cc23)c1	-20
COCCN1C(=O)CCc2cc(NS(=O)(=O)c3cccc(OC)c3)ccc21	1
COc1ncccc1-c1ccc(S(N)(=O)=O)cc1F	5
CC(=O)N1CCC(C(=O)NCc2ccccc2)(N(CCC(C)C)C(=O)c2ccc(Br)cc2)CC1	-16
O=C(CCNC1CCC2(CCNCC2)CC1)Nc1nccs1	-14
CC(=O)Nc1c(C)nc2nc[nH]n2c1=O	6
Cc1cnc(C)c(N2CC(c3ccncc3)C2)n1	7
CCc1c(C)[nH]n2c(=O)cc(CCCn3cnc4ccccc4c3=O)nc12	5
O=C(COc1ccc2c(c1)OCO2)NCc1cccnc1	4
CCN1C(=O)CC(c2ccncc2)C12CCN(CCO)CC2 (stereo unspecified)	-7
C[N+](C)(C)C[C@H](O)CC(=O)O	13

Already shown: an excerpt of the list.
SMILES	Tg IFNy HTS
CCc1noc(CN(CC)C(=O)c2sc(C(C)C)nc2C)n1	-34
CC(=O)Oc1ccc(CN2CCC(c3nc(C)c(C)c(N4CCOCC4)n3)CC2)cc1	2

Remaining list, next part
SMILES	Tg IFNy HTS
CNC(=O)C1CCC2(CCN(c3ncccn3)CC2)CO1 (stereo unspecified)	-34
O=C(NC[C@@H]1[C@H](c2ccccc2)[C@@H](CO)N1C(=O)C1CCC1)NC1CCCC1	8
COc1c2c(nc3occc13)C(CC=C(C)C)(OC)C(O)CC2 (stereo unspecified)	-19
Cc1cnc(C(=O)N2CC3CCC2C3OCCN(C)C)cn1 (stereo unspecified)	2
Cc1cccc(-c2nc(C)c(CCNC(=O)c3cccc([N+](=O)[O-])c3)s2)c1	i
Cc1ccc(CN(C)C(=O)c2cc(-c3cnn(C)c3C)n[nH]2)o1	-15
Cc1nc(Nc2ncc(C(=O)Nc3c(C)cccc3Cl)s2)cc(N2CCN(CCO)CC2)n1	-77*
COc1ccc2[nH]c(=O)c(CN(C)Cc3cn(C)nc3C)cc2c1	-8
COCc1nc2c(o1)CN(C(=O)NCc1cccc(F)c1)C2	-1
C[C@H](NC(=O)C[C@H]1CC[C@H]2[C@H](COc3ccc(NS(=O)(=O)c4ccc(Cl)cc4)cc3C(=O)N2C)O1)c1ccccc1	-9
COc1cc(N2CCCn3cnc(COCCO)c3C2)ncn1	49
O=C(O)c1ccc(-n2ccnc2)c(C#Cc2ccccc2)c1	12
Cc1nc(C(C)C)ncc1C(=O)N1CCNCC1C(=O)NC1CC1 (stereo unspecified)	0
O=C(C[C@H]1C[C@@H]2CN(Cc3ccccc3)C[C@H]2O1)N1CCCCO1	-32
NC(=S)CS(=O)(=O)Cc1cccc(C(F)(F)F)c1	-53
C[C@H]1CC[C@@]2(OC1)O[C@H]1C[C@H]3[C@@H]4CC[C@@H]5C[C@@H](O)CC[C@]5(C)[C@H]4CC[C@]3(C)[C@H]1[C@@H]2C	11
Cc1cccc(Cn2nc(C)cc2NC(=O)c2ccc(=O)[nH]c2)c1	-47
CCOC(=O)c1nc(N(CC)c2cc(C)ccc2C)c2ccccc2n1	-35
Cc1noc(C)c1CCCNC(=O)c1ccc(-c2ccccc2CO)nc1	18
COc1ccc2c3c(n(C)c2c1)[C@H](CO)NCC31CN(S(=O)(=O)c2ccc(C)cc2)C1	-48
O=C1CCC2(CCCN(c3ncccn3)C2)N1Cc1cccnc1 (stereo unspecified)	-43
Fc1ccc(-n2cc(CNCCc3ccccn3)c(-c3ccccc3Cl)n2)cc1	7
CN(C)CC(=O)N1CCC2(CC1)COCCN(c1ncccn1)C2	-17
COc1cccc(C2CCCCN2S(=O)(=O)c2cn(C)cn2)c1 (stereo unspecified)	6
CCc1nn2cc(C(C)(C)C)nc2s1	90

Other results:
SMILES	Tg IFNy HTS
Cc1cc(C)n(C(C)CNC(=O)c2ccc(NC(=O)C3CCC3)cc2)n1 (stereo unspecified)	5
CCc1ccccc1OCCN(C)C(=O)c1ccc2nccn2c1	-7
Nc1ccc2nn(-c3cccc4ccccc34)nc2c1	-5
CCS(=O)(=O)N(C)C[C@@H]1N[C@H](CO)[C@@H]1c1ccc(C2=CCCCC2)cc1	16
CC(C)Oc1ccc(-c2cncn2C)cc1	2
Cn1cc(N2C[C@@H]3CN(C(=O)c4ccoc4)C[C@@H]3C2=O)cn1	7
Cc1noc([C@@H]2C[C@@H]3OCC[C@@H]3N(Cc3ccc(C)s3)C2)n1	-20
Cc1cn(S(=O)(=O)c2cn(C)nc2C(F)(F)F)nc1C(F)(F)F	-60
CN1CCC2(CCN(Cc3ccc(-n4cncn4)cc3)CC2)C1	-26
COc1ccc(CN2C[C@H](O)COC[C@@H]3O[C@@H](CC(=O)N(C)C)CC[C@H]32)cc1	28
O=C(CN1CCCC1)N1CCc2ccccc21	-30
Cc1ccc(NC(=O)Nc2ccc(-c3nc(-c4ccccc4)co3)cc2)cc1	24
Cc1nc(-c2ccccc2)sc1CCNS(=O)(=O)c1ccc2c(c1)CCCC2	-16
COC(=O)CC(=O)Nc1ccc(-c2nc(-c3ccc(C)cc3C)co2)cc1	88
CCCNC(=O)N1[C@H](CO)[C@H](c2ccccc2-c2ccccc2F)[C@@H]1C#N	-20
COCC1c2c(cnn2C)CCN1Cc1nc(C)cs1 (stereo unspecified)	-22
O=c1c(-c2ccc(O)cc2)coc2c(C3O[C@H](CO)[C@@H](O)[C@H](O)[C@H]3O)c(O)ccc12 (stereo partly specified)	2
Cc1cccc(N2CCN(C(=O)c3cn4c(n3)COCC4)CC2)c1C	-16
O=C(CC1CC1)N1CC2(C1)[C@@H](c1ccccc1)[C@@H](CO)N2C(=O)c1ccccn1	24
COc1ccc(Cn2c(-c3ccccc3OC)n[nH]c2=O)cc1	5
COCc1ccc(C(=O)N2CCc3c(cc(-c4ccncc4)c(=O)n3CCN3CCCCC3)C2)s1	-4
CSc1cccc(NC(=O)Cn2c(=O)cc(C(=O)N3CCCCC3)c3ccccc32)c1	-11
C[C@@H]1CN([C@H](C)CO)C(=O)c2ccccc2-c2ccccc2CO[C@H]1CN(C)C(=O)[C@H]1CCCN1C	-13
O=C(NCC[C@H]1CC[C@H](NC(=O)C2CCOCC2)[C@H](CO)O1)c1cc(Cl)cc(Cl)c1	40
Cc1ccc(CN2CCN(Cc3cnc(C)[nH]3)CC2=O)cc1	1

An excerpt of these results, with bars between the fields.
canonical_smiles | Tg IFNy HTS
COc1ccc(CN2C[C@H](O)COC[C@@H]3O[C@@H](CC(=O)N(C)C)CC[C@H]32)cc1 | 28
O=C(CN1CCCC1)N1CCc2ccccc21 | -30
Cc1ccc(NC(=O)Nc2ccc(-c3nc(-c4ccccc4)co3)cc2)cc1 | 24
Cc1nc(-c2ccccc2)sc1CCNS(=O)(=O)c1ccc2c(c1)CCCC2 | -16
COC(=O)CC(=O)Nc1ccc(-c2nc(-c3ccc(C)cc3C)co2)cc1 | 88
CCCNC(=O)N1[C@H](CO)[C@H](c2ccccc2-c2ccccc2F)[C@@H]1C#N | -20
COCC1c2c(cnn2C)CCN1Cc1nc(C)cs1 (stereo unspecified) | -22
O=c1c(-c2ccc(O)cc2)coc2c(C3O[C@H](CO)[C@@H](O)[C@H](O)[C@H]3O)c(O)ccc12 (stereo partly specified) | 2
Cc1cccc(N2CCN(C(=O)c3cn4c(n3)COCC4)CC2)c1C | -16
O=C(CC1CC1)N1CC2(C1)[C@@H](c1ccccc1)[C@@H](CO)N2C(=O)c1ccccn1 | 24
COc1ccc(Cn2c(-c3ccccc3OC)n[nH]c2=O)cc1 | 5
COCc1ccc(C(=O)N2CCc3c(cc(-c4ccncc4)c(=O)n3CCN3CCCCC3)C2)s1 | -4
CSc1cccc(NC(=O)Cn2c(=O)cc(C(=O)N3CCCCC3)c3ccccc32)c1 | -11
C[C@@H]1CN([C@H](C)CO)C(=O)c2ccccc2-c2ccccc2CO[C@H]1CN(C)C(=O)[C@H]1CCCN1C | -13
O=C(NCC[C@H]1CC[C@H](NC(=O)C2CCOCC2)[C@H](CO)O1)c1cc(Cl)cc(Cl)c1 | 40
Cc1ccc(CN2CCN(Cc3cnc(C)[nH]3)CC2=O)cc1 | 1

Remaining list, next part
SMILES	Tg IFNy HTS
CN1C(=O)c2cc(NC(=O)c3cscn3)ccc2OC[C@H]2O[C@H](CC(=O)NCc3ccc(Cl)c(Cl)c3)CC[C@H]21	-27
O=C(Cc1cccnc1)N1CC(=O)N2[C@@H](CO)[C@H](c3ccc(C#CC4CCCCC4)cc3)[C@@H]2C1	-37
COc1ccc(-n2c(=O)c(C(=O)NCc3ccccc3F)c(O)c3cccnc32)cc1	123
CC(C)C1Oc2cc3oc(=O)ccc3cc2C1=O (stereo unspecified)	3
Cn1cc(C(CNS(=O)(=O)c2cnc[nH]2)c2cccnc2)c2ccccc21 (stereo unspecified)	-29
CCC(=O)NCc1cccc(-c2cccc3ccnn23)c1	-2
Cc1nc(C23CC4CC(CC(C4)C2)C3)co1	-54
Cc1cc(C)n(Cc2nc(-c3ccc(NC(=O)c4ccc(F)cc4)cc3)oc2C)n1	-68
Cc1c(C)c2c(c(C)c1O)CCC(C)(C(=O)N1CCC(O)(CO)CC1)O2 (stereo unspecified)	1
Cc1c(C(=O)Nc2nccs2)nnn1-c1ccccc1C(F)(F)F	36
C[C@@H](NC(=O)C[C@@H]1CC[C@@H]2[C@H](COc3ccc(NS(=O)(=O)c4ccc(Cl)cc4)cc3C(=O)N2C)O1)c1ccccc1	8
Cc1ccc(-c2nc(C(=O)NCCN3CCOCC3)c3n2CCCCC3)cc1	13
c1coc(CN2CCC3(CC2)COC(COCc2ccncc2)C3)c1 (stereo unspecified)	-6
COc1ccc(CC(=O)N2CCC3(CC2)Nc2ccc(Cl)cc2-n2cccc23)cc1	25
Cc1nc(-c2ccc(F)cc2)sc1-c1ccc(SCCN2CCOCC2)nn1	4
CC(C)N(C)Cc1cnc2n1CCN(C(=O)CC1CC1)CC2	-3
CN(C)C(=O)N1CCC2(CC1)CCn1c(C3CC3)cnc12	i
CC1=C(C(=O)Nc2ccc(Cl)c(Cl)c2)C2(CCN(Cc3ccccc3)CC2)OC1=O	-93*
O=C(O)c1cccc(-c2n[nH]c3ccccc23)c1	25
C/C=C/c1ccccc1[C@@H]1[C@@H](CO)N(C(=O)Cc2ccccn2)[C@H]1C#N	16
CCOc1nc(NCCO)nc(NCCC2=CCCCC2)n1	-7
Cc1ccc2nc(C)c(C(=O)N(C)Cc3noc(-c4ccccc4)n3)n2c1	6
O=C(Cn1nnc(-c2ccc(C(F)(F)F)cc2)n1)Sc1ccc(F)cc1F	45

This is a subset (hit frequency here may not be typical).
